# RecA intein inh: inhibitors of M. tuberculosis RecA intein splicing. inhibition, %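 (about 9 µM by stock and volumes)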. P9WHJ3. 0.75% of 290,000 active. cell-free RecA intein splicing, fluorescence; in the data active = inhibition above about 30%; inconclusive = no clear call, values can overlap the other calls;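 also: 0% = vehicle wells and 100% = reference inhibitor control wells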
# Target sequence (P9WHJ3 whole entry, looked up): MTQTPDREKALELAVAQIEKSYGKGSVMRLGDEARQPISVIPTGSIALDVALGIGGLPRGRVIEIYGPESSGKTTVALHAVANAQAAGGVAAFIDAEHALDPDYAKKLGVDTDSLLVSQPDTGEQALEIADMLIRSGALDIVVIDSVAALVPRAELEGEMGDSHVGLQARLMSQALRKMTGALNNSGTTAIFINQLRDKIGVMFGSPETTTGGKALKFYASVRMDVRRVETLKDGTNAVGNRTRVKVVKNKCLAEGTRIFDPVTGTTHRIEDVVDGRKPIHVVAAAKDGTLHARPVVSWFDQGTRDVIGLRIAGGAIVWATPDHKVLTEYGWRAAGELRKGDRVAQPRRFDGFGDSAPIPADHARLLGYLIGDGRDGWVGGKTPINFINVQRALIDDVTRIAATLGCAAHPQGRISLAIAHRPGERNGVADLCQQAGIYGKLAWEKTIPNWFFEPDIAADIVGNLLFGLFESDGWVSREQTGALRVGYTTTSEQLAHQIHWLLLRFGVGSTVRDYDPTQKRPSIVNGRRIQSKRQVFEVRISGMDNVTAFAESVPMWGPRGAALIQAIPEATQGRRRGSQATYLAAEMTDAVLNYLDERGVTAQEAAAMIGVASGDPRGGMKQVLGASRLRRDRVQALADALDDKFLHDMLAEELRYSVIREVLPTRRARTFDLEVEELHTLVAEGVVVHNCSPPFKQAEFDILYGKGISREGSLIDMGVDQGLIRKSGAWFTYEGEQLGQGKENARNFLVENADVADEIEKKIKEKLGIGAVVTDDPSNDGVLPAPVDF
# Arbovirus inh: arbovirus infection inhibition | arbovirus infection cell-based antiviral screen | inhibition, % at 10 µM | 0.37% of 200,000 active | AID 1251;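 active = inhibition from about 30%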;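 also: bluetongue infection of BSR cells; cell survival read as ATP light after 72 h; 0% = infected wells without compound and 100% = uninfected wells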
# Mtb H37Rv: M. tuberculosis H37Rv growth inhibitors, H37Rv strain (AID 1626); 0.95% of 220,000 active; M. tuberculosis H37Rv growth inhibition; higher % means a stronger effect; inhibition, % at 10 µM; hits with a dose series show IC50 in µM;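 active = confirmed in a dose series; inconclusive = inhibition above 80% but not taken into the dose series; inactive = below 80% or under 30% at every dose of the series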;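 also: bacteria incubated seven days before Alamar blue readout; 0% = bacteria only wells and 100% = bacteria with antibiotic wells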
# YopH inh: inhibitors of Yersinia enterocolitica YopH tyrosine phosphatase; fluorescence Ex485/Em525; inhibition, %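 (about 10 µM by stock and volumes)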; 0.16% of 140,000 active; AID 898;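 active = inhibition of 50% or more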;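 also: controls were vehicle for no effect and minimum signal wells for full effect; inactives centre near -20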
# Mtb bLac sens: beta-lactam sensitization of Mtb H37Rv; M. tuberculosis H37Rv growth with meropenem, percent inhibition; hits of this screen are not shown here; 0.27% of 330,000 active; inhibition, % at 25 µM; AID 434955;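 active = about 74% or more and at least 40 points above the plate without the antibiotic, then above 30% in a dose series; inconclusive = first-round hits that could not be retested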;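 also: growth measured after seven days incubation then overnight dye step; 0% = bacteria only wells and 100% = bacteria with antibiotic; twin plates without the antibiotic show which effects depend on it; some results filed as inactive read as strong as hits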
# Arbovirus inh repeat: recorded beside Arbovirus inh, whose call it bears; inhibition, %; measured here: 10K subset replicate screen; many hits read low in the repeat;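 first of two repeat runs on a subset; 0% = infected and 100% = uninfected wells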
# * marks the source's active call; other numbers are inactive results; ? = inconclusive; nt = not tested or not shown. Not all compounds are listed (hit frequency here may not be typical).
SMILES,RecA intein inh,Arbovirus inh,Mtb H37Rv,YopH inh,Mtb bLac sens,others
CCC1CCc2c(sc3ncnc(N4CCOCC4)c23)C1 (configuration not stated),0.0,-4,-2%,-32,16,
Cc1cc(C(=O)Nc2cccnc2Cl)on1,-0.4,-3,0%,6,5,
Cn1c(SCc2nc3ccccc3c(=O)[nH]2)nc2ccccc21,0.4,9,-10%,nt,0,
COC(=O)c1ccc(NC(=O)CSc2nnc(C)n2CC2CCCO2)cc1 (configuration not stated),0.1,nt,nt,nt,3,
CN(C)S(=O)(=O)CC12CCC(CC1=O)C2(C)C (configuration not stated),3.2,6,-6%,-3,-12,
COc1ccc(CCC(=O)N2CCN(C(=O)c3ccccc3)CC2)cc1,-0.6,nt,nt,nt,1,
Cc1ccc(S(=O)(=O)NCCC2=CCCCC2)cc1C(N)=O,-0.2,nt,nt,nt,-13,
O=C(NN1C(=O)C2C3C=CC(C3)C2C1=O)c1cccc(Cl)c1 (configuration not stated),5.4,4,-8%,-30,0,
CCN1CCN(c2ccc(S(=O)(=O)N3CCCCC3)cc2NC(=O)c2ccc(OC(F)F)cc2)CC1,5.9,nt,nt,nt,6,
Cc1csc(NC(=O)c2ccc(Cl)cc2[N+](=O)[O-])n1,0.8,-3,-4%,nt,1,
O=C1CCC/C(=N/NC(=O)c2sc3ccccc3c2Cl)C1,-20,nt,0%,nt,22,
O=C(CSc1ccccc1)NCCc1ccc(F)cc1,0.3,nt,nt,nt,3,
COc1ccccc1CN1CCNC(=O)C1CC(=O)NCCCN1CCCC1=O (configuration not stated),0.8,nt,nt,nt,10,
O=C(Cn1cc2c(n1)CCCC2)Nc1cc(-c2cccc(Cl)c2)no1,0.9,12,?,7,0,Arbovirus inh repeat=3
Cc1cc(=O)n(CC(C)C)c(O)c1C#N,nt,1,-2%,-57,2,

# Grouped by structure: the compounds so far with fluorine.
SMILES,RecA intein inh,Arbovirus inh,Mtb H37Rv,YopH inh,Mtb bLac sens,others
CCN1CCN(c2ccc(S(=O)(=O)N3CCCCC3)cc2NC(=O)c2ccc(OC(F)F)cc2)CC1,5.9,nt,nt,nt,6,
O=C(CSc1ccccc1)NCCc1ccc(F)cc1,0.3,nt,nt,nt,3,

# Continued.
SMILES,RecA intein inh,Arbovirus inh,Mtb H37Rv,YopH inh,Mtb bLac sens,others
COC(=O)c1ccccc1NC(=O)CN1CCC(C)CC1,-2.3,3,7%,nt,1,
CC(C)C(NC(=O)C1CCC(C(C)(C)C)CC1)C(=O)NCCCN1CCCCC1 (configuration not stated),0.4,1,6%,nt,-13,
Cn1c(=O)c2c(n3cnnc13)-c1ccccc1CC21CCCC1,0.9,7,-2%,-9,4,
CCOc1ccc(OCC)c(NC(=O)c2[nH]c(C)c(C(C)=O)c2C)c1,0.2,-1,2%,-35,6,
C=C(C)C1CC=C(C)/C(=N\NC(=S)Nc2ccc(C)cc2)C1 (configuration not stated),1.7,-9,9%,-18,14,
C[C@@H]1C[C@H](O)c2cc(Cl)ccc2N1,-4.2,-6,-1%,-10,-6,
CCc1nn(C(CC)C(=O)NCc2cccc(OC)c2)c(=O)c2cc3occc3n12 (configuration not stated),-0.9,nt,nt,nt,0,
COc1cc(OC)c(-c2nn3c(-c4ccco4)nnc3s2)cc1OC,nt,-17,-10%,-36,nt,
CCCn1c(SCC(=O)Nc2cccc(NC(C)=O)c2)nnc1C(C)C,-0.1,0,-2%,-36,3,
CCc1nnc(NC(=O)C2Cc3ccccc3C(=O)O2)s1 (configuration not stated),0.7,0,-2%,-31,-9,Arbovirus inh repeat=4
N#CC1=C(N)OC2=C(C(=O)CCC2)C1c1ccncc1 (configuration not stated),2.0,2,3%,-39,-10,
COc1ccccc1N(CC(=O)Nc1cccnc1)S(C)(=O)=O,1.4,8,-4%,12,-6,Arbovirus inh repeat=4
CCOC(=O)/C(C(C)=O)=C1\OC(=O)c2ccccc21,0.6,2,2%,-1,-6,
NNC(=O)c1cccn(Cc2cccc(C(F)(F)F)c2)c1=O,0.8,nt,nt,nt,2,
COC(=O)c1ccc(CN2C(=O)C(C)N(C(=O)c3c(F)cccc3F)c3ccccc32)cc1 (configuration not stated),7.3,nt,nt,nt,4,

# Three entries out of the list, ordered by number of heavy atoms, largest number first.
SMILES,RecA intein inh,Arbovirus inh,Mtb H37Rv,YopH inh,Mtb bLac sens,others
CCCn1c(SCC(=O)Nc2cccc(NC(C)=O)c2)nnc1C(C)C,-0.1,0,-2%,-36,3,
Cn1c(=O)c2c(n3cnnc13)-c1ccccc1CC21CCCC1,0.9,7,-2%,-9,4,
CCOC(=O)/C(C(C)=O)=C1\OC(=O)c2ccccc21,0.6,2,2%,-1,-6,

# Filtered by structure, the compounds so far with an NH in an aromatic ring
SMILES,RecA intein inh,Arbovirus inh,Mtb H37Rv,YopH inh,Mtb bLac sens,others
Cn1c(SCc2nc3ccccc3c(=O)[nH]2)nc2ccccc21,0.4,9,-10%,nt,0,
CCOc1ccc(OCC)c(NC(=O)c2[nH]c(C)c(C(C)=O)c2C)c1,0.2,-1,2%,-35,6,

# Later entries:
SMILES,RecA intein inh,Arbovirus inh,Mtb H37Rv,YopH inh,Mtb bLac sens,others
Cc1cc(C(=O)NCc2cccnc2)cs1,-3.2,9,-7%,-23,-2,
CCSc1nc2c(c(=O)[nH]1)C(c1ccncc1)C(C(=O)OC(C)C)=C(C)N2 (configuration not stated),2.5,-8,-11%,-26,43,
COCCCNC(=S)N1CCCN(c2nc3cc(C)c(C)cc3cc2C#N)CC1,-83,13,-4%,nt,10,
Cn1c2ccccc2c2cnn(CC(=O)Nc3ccccc3Br)c(=O)c21,0.8,nt,-4%,nt,-5,
O=[N+]([O-])c1ccc(Nc2nc(N/N=C/c3cccc(F)c3)nc(N3CCCC3)n2)cc1,0.1,0,19%,-15,?,
O=[N+]([O-])c1ccc(N/N=C/c2ccccc2O)cc1,-10,nt,nt,nt,96,
Cc1nnc(-c2cnn(C)c2N)n1Cc1ccccc1,-2.0,1,-5%,0,-3,
Cc1cc(C)cc(NCc2cc(=O)oc3cc(C)c(O)cc23)c1,1.2,nt,nt,nt,-1,
CC1=NN(C(=O)c2cc(C)nn2C)C(O)(C(F)(F)F)C1 (configuration not stated),3.0,3,5%,-25,3,
COc1ccc(Br)cc1C1N2CC3(C)CN1CC(C)(C2)C3=O (configuration not stated),-2.1,2,-5%,7,-2,
Cc1cc(C)cc(C(=O)NCC(=O)OCC(=O)N2CCCCC2)c1,-2.9,6,0%,nt,-6,
Cn1c(SCC(=O)Nc2nncs2)nnc1C1CC1,-4.1,nt,nt,nt,6,
CN(C)c1ccc(/C=C2/C(=N\O)C3CCN2CC3)cc1,-250,nt,6%,nt,10,
CCC(=O)Nc1cccc(-c2ccc(N3CCCCC3)nn2)c1,6.3,nt,nt,nt,?,
Cn1cc(C(=O)N/N=C/c2cc(Br)cs2)c2ccccc21,-0.1,nt,-7%,nt,-7,
O=C(NCCCN1CCCC1=O)c1cc(NS(=O)(=O)c2ccc(F)cc2)cc(NS(=O)(=O)c2ccc(F)cc2)c1,2.2,8,2%,-22,2,
CCc1ccc(NC(=O)c2cc(-c3cccs3)on2)cc1,3.4,-25,?,nt,89,
CCCn1nc2cc(C(=O)NCc3ccccc3OC)ccc2c1OCC,0.0,4,-8%,-31,-6,
OCCC1CN(Cc2cccn2-c2cccnc2)CCN1Cc1ccccc1 (configuration not stated),-5.1,3,0%,nt,2,
O=C(COc1ncnc2ccccc12)N1CCN(c2ccccc2)CC1,1.9,4,5%,nt,-7,
CN1C(=O)S/C(=C/c2cccn2-c2cccc(C(=O)O)c2)C1=O,2.3,7,-1%,nt,-3,
O=C(CSC1=NC(=O)C(c2ccccc2)C(=O)N1)Nc1cccc(Cl)c1 (configuration not stated),1.7,6,-6%,-27,1,
O=C(CC(NS(=O)(=O)c1ccc(Cl)cc1)c1ccco1)NCc1ccco1 (configuration not stated),-1.4,-2,nt,-52,9,
CCNC(=O)CN(c1ccccc1OC)S(=O)(=O)c1cccs1,-0.3,-6,2%,-14,-4,
Cc1ccccc1N(CC(=O)NCCSCc1ccccc1)S(C)(=O)=O,-1.9,nt,nt,nt,-7,
O=c1[nH]c(=O)n(-c2ccccc2)c(O)c1/C=C/C=Nc1ccccc1,-5.4,-8,-6%,-31,-2,
Cc1ccc(S(=O)(=O)Nc2cccc(-c3ccc4nncn4n3)c2)cc1,-1.3,nt,nt,nt,3,
O=[N+]([O-])c1cccc2c1ccc1ncccc12,-2.8,nt,nt,nt,3,
O=C(NCCCN1CCCCC1)c1ccc2c(=O)n(CCc3ccccc3)c(=O)[nH]c2c1,-5.5,-21,nt,-4,-2,Arbovirus inh repeat=-10
CCOC(=O)C1=C(C)NC(C)=C(C(=O)OCC)C1c1cc(N)ccc1OC(F)F,-0.7,-6,-4%,-28,-8,
COc1ccc(CNC(=O)C2CCC(CNS(=O)(=O)c3ccccc3)CC2)cc1 (configuration not stated),0.5,nt,nt,nt,6,
Cc1ccc2oc(C(=O)N3CCN(Cc4nccn4C)CC3)c(C)c2c1,-0.4,nt,nt,nt,0,
CC1(C)Cc2c(cnn2-c2ccccc2)C(NC(=O)CCc2ccc(=O)[nH]n2)C1 (configuration not stated),4.5,nt,nt,nt,?,
CC(C)C(=O)Nc1ccc(N2CCCC2)c(Cl)c1,0.6,9,-3%,nt,6,
COc1cc(COCC(O)CN2CCOCC2)cc(OC)c1OC (configuration not stated),-0.1,17,-6%,-43,8,
Cc1ccc(OCCCN2CCOCC2)c([N+](=O)[O-])c1,-1.5,7,-3%,-13,1,
Cc1onc(-c2ccccc2Cl)c1C(=O)N1CCN(c2ccccc2)CC1,1.0,0,-1%,-7,-3,
CCN(CC)c1nc(Oc2ccc(C(=O)OC)cc2)nc(N2CCOCC2)n1,8.5,-5,5%,nt,6,
COc1ccc(CN2CCN(Cc3csc(C(C)=O)c3)CC2CCO)c(C)c1C (configuration not stated),0.5,-6,2%,nt,-5,
CC(=O)Nc1cc(-c2nn(C)c(=O)c3ccccc23)ccc1N1CCCCC1,1.2,-10,1%,-11,7,
O=C(CN1C(=O)NC2(CCCCCC2)C1=O)N1CCN(S(=O)(=O)c2ccccc2)CC1,-0.6,3,1%,nt,-1,
CCCCOc1ccc(-c2nnn(C(C)C(=O)OCC)n2)cc1 (configuration not stated),nt,0,80%,-41,100,
CCOC(=O)Cc1csc(NC(=O)c2ccc(Br)o2)n1,0.1,-2,1%,-17,-2,
O=C1CN=C(c2ccccc2)c2ccccc2N1,0.5,nt,nt,nt,-1,
CCCCCN(C(=O)CCC(=O)OCC(=O)c1c(C)cc(C)cc1C)c1c(N)n(CCCC)c(=O)[nH]c1=O,0.4,nt,nt,nt,-3,
COc1cccc(C2C=C(Nc3ccccc3)C(=O)N2c2ccccc2)c1 (configuration not stated),-1.8,-3,3%,-26,16,
O=C(Nc1ccccc1)N1CC=C(c2ccc(F)cc2)CC1,-0.2,-5,8%,-25,0,
O=C(CC1(O)C(=O)N(Cc2cccc3ccccc23)c2ccccc21)c1cccnc1 (configuration not stated),-0.8,-3,-1%,1,28,
Cc1ccc(-c2nc3cc(N)ccc3o2)cc1,-0.6,-24,nt,-27,19,
COc1ccc(N2CCN(C(=O)c3cc4c(-c5ccc(Cl)cc5)nn(C)c4s3)CC2)cc1,nt,-5,11%,-26,-2,Arbovirus inh repeat=0
COc1cc(NC(=O)CN(C)S(=O)(=O)c2ccc3c(c2)CCC(=O)N3)cc(OC)c1,-3.2,-1,-3%,-19,-3,
O=C(O)C1CCCN1C(=O)OCc1ccccc1 (configuration not stated),-0.8,2,-10%,-19,4,
Cc1ccc(-c2nnc(SCC(=O)Nc3nccs3)n2N)cc1,-1.0,3,-8%,-25,1,
Cc1ccc(C(NC(N)=O)c2ccccc2)cc1 (configuration not stated),-0.3,0,-7%,-5,1,
CC(=O)Nc1ccc(OC(=O)N2CCCCC2)cc1,-0.8,-2,-2%,-30,-9,
c1ccc(-c2c[n+]3c(n2-c2ccccc2)SCC3)cc1,-0.5,nt,-3%,nt,-3,
COc1ccc2c(c1)c(=O)c(C(=O)c1ccc(Cl)cc1)cn2CC(=O)Nc1ccc(F)cc1,0.2,-3,nt,-18,5,
Cc1cccc2c1N(C(=O)CN1C(=O)c3ccccc3C1=O)C(C)(C)c1ssc(=S)c1-2,2.2,5,-5%,-33,-2,
Cc1ccc(NC(=S)NNc2ccc(C(=O)O)cc2[N+](=O)[O-])cc1C,-8.4,nt,nt,nt,-2,
O=C(CCCCCN1C(=O)c2cccc3cccc(c23)C1=O)NC1CCS(=O)(=O)C1 (configuration not stated),-0.5,nt,4%,nt,-6,
O=C1CCCCC1Sc1ccc(Cl)cc1[N+](=O)[O-] (configuration not stated),-2.9,nt,nt,nt,-12,
COc1ccc(-c2ccc(N)[n+](CCCC(=O)O)n2)cc1,-3.4,nt,-8%,nt,-3,
COCCn1c(C)c(C(=O)O)sc1=S,-0.9,6,-9%,-19,-7,
